Sa growth 42C = S. aureus growth inhibition at 42 and 30 °C, primary screen, LtaS inhibitor project, RN4220, two temperatures | OD600, 20 h, 42 °C; active compounds read low | relative growth, % (concentration not given with the values) | 170,000 compounds, 0.53% hits;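 active = growth at 42 °C up to 50% and 20 or more points under that at 30 °C, or under 10% at both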;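 also: 300 nL library stock went into each well; scaled to the means of positive and negative controls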
HCMV UL50-53 inh = inhibitors of HCMV UL50-UL53 interaction, biochemical, HTRF. HCMV UL50-UL53 nuclear egress complex (human cytomegalovirus). normalized percent inhibition. inhibition, % (test concentration not listed). 190,000 compounds, 0.15% hits;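 active = both replicates at 50% or more, plus weaker picks with an unusually low signal ratio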;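 also: stock transfer was 100 nL into about 20 µL; 0% = negative control wells and 100% = wells with untagged competitor protein; inactives centre near -12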
GIV-Gai inh = inhibitors of GIV peptide binding to Galpha-i3, primary screen, biochemical, fluorescence polarization, FITC-GIV GBA peptide, rat Galphai3; Guanine nucleotide-binding protein G(i) subunit alpha-3 (Rattus norvegicus), P08753; 90 min; active compounds read low; scaled: aluminum fluoride 0%, vehicle 100%; percent of control (FP), % (no concentration beside the values); 210,000 compounds, 0.42% hits;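 active = replicate mean at 85% of control or lower, very high polarization wells dropped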;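 also: wells of about 15 µL received 100 nL stock; the first replicate is given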
Target sequence (P08753 whole entry, looked up): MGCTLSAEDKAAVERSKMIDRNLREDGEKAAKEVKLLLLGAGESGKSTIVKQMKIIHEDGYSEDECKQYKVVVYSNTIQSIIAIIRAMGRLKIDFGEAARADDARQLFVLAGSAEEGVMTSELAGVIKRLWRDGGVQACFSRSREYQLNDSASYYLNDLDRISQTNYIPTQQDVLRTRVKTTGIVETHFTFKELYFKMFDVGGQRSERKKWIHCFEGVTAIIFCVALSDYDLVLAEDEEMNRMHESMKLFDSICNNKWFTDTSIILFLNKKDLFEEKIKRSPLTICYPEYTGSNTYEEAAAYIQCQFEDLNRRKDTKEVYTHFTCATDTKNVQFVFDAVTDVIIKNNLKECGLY
Sa growth 42C second temp = further read-out of Sa growth 42C, marked with its call; relative growth, %; measured here: growth at 30 °C;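 optical density after 20 h as mean of two plates; 100% = untreated growth and lower means inhibition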
* hit, by the source's call; nt = not tested or not shown. Random draw from the library. About 0.8% of those tested had a hit in this group.

SMILES	Sa growth 42C	Sa growth 42C second temp	HCMV UL50-53 inh	GIV-Gai inh
Cc1ccc(Cl)cc1NC(=O)Cn1nnc2sc3c(c2c1=O)CCC(C(C)(C)C)C3 (configuration not stated)	93.6	87.7	-31.3	102.2
CCN1/C(=C2/SC(=S)NC2=O)Sc2ccccc21	117.1	85.1	nt	103.9
CCOc1ccc(N=C2C(=O)Nc3ccc(C)c(Br)c32)cc1	87.8	84.7	-1.0	nt
O=C(Cn1nc(Cc2ccncc2)c2ccccc2c1=O)Nc1cccc(C(F)(F)F)c1	108.0	70.2	-24.3	105.7
COC(=O)C1CCC(=O)C(C(=O)OC)C1 (configuration not stated)	103.4	102.1	12.7	100.1
COc1cccc(-c2nc(S(=O)(=O)c3ccc(C)cc3)c(N3CCCCCC3)o2)c1	115.2	89.5	-30.4	106.4
Cc1ccc(C(=O)N2CC3(C)CC2CC(C)(C)C3)cc1 (configuration not stated)	125.3	111.4	-15.7	99.5
O=C(Nc1ccccc1Cl)c1cc(-c2cccs2)nc2ccccc12	109.7	78.4	nt	97.0
COC(=O)COc1ccc(/C=C2\C(=O)NC(=S)N(c3ccc(C(C)C)cc3)C2=O)cc1OC	nt	nt	-8.8	95.8
CN(C)c1cccc(C(=O)NCCc2c[nH]c3ccccc23)c1	99.3	94.3	-16.0	nt
CCc1onc(C)c1C(=O)O	101.6	92.8	nt	105.2
COc1ccc(CCNC(=O)CCc2c(C)nc3cc(-c4ccccc4OC)nn3c2C)c(OC)c1	97.3	84.9	-25.5	105.9
COCCCNCC1C(Oc2ccc(Cl)cc2)C(=O)N1c1ccccc1C (configuration not stated)	nt	nt	-25.5	99.7
Cc1cccc(N2C(C)C(=O)SC23CCCCC3)c1 (configuration not stated)	114.3	94.2	2.0	nt
COc1cc2c(cc1OC)-c1nnc(C)n1C1(CCCC1)C2	88.6	83.8	-8.2	98.5
Cc1csc(=O)n1CCC(=O)OCN1C(=O)c2ccccc2C1=O	89.4	83.3	-22.9	nt
Cc1cc2ncc(-c3ccn(S(=O)(=O)c4ccc(Cl)cc4)c3)nc2cc1C	78.5	84.1	-29.0	214.2
Cc1cnc(NCCc2ccccc2)s1	69.6	55.5	3.5	104.2
CCOC(=O)c1ccc(COC(=O)CCc2nc3ccccc3[nH]c2=O)cc1	83.1	84.8	-22.3	96.9
COc1ccc(C(=O)CN2C(=O)COc3ccccc3C2=O)cc1OC	nt	nt	-9.3	107.6
CCn1c2c(c3cc(OCc4ccccc4)ccc31)CCCC2=O	94.3	86.7	-35.6	97.9
O=C(CSc1ncc(S(=O)(=O)c2ccc(Br)cc2)c(=O)[nH]1)NCc1ccc(Cl)cc1	100.0	93.7	-2.2	107.5
Cc1cc(C)n2nc(-c3ccccc3)cc2n1	88.4	104.8	7.0	93.6
CCOC(=O)c1cc(-c2ccc(OC)c(S(=O)(=O)NC)c2)on1	104.2	89.5	-18.9	106.3
C/C(=N\n1c(-c2ccccc2)n[nH]c1=O)c1ccccc1	83.2	88.4	5.0	nt
Cc1ccccc1-c1nc2cc(NCc3cccs3)ccc2o1	97.5	75.7	-6.4	109.1
Cc1ccc(S(=O)(=O)N2CCCc3cc(NC(=O)c4ccc(C(F)(F)F)cc4)ccc32)cc1	100.0	92.5	nt	105.5
CCOC(=O)C1CCN(C/C=C/c2ccccc2)CC1	101.8	98.9	-16.4	105.2
CN(C(=O)Nc1ccccc1)n1cnc2ccsc2c1=O	92.0	83.2	-21.9	108.0
Cc1nnc2n(c1=O)N=C(c1ccccc1)CS2	110.1	94.9	-109.9	103.1
O=C(COC(=O)c1ccncc1)Nc1ccccc1	90.1	90.7	-15.2	nt
C=CCNc1nc(C(=O)OCC(=O)c2cc(C)n(Cc3ccc4c(c3)OCO4)c2C)cs1	97.9	93.7	13.0	nt
O=C(Nc1ccc(O)cc1C(=O)O)c1ccc2c(c1)C(=O)N(CC1CCCO1)C2=O (configuration not stated)	81.1	83.5	-71.1	95.8
O=c1[nH]c2ccccc2c(O)c1Br	90.0	91.8	0.8	95.0
CN(C)C(=O)NC1c2ccccc2-c2ccccc21	90.5	73.4	-5.5	99.6
CC(C)(C)c1ccc(Cn2c(Cc3ccccc3)nc3ccccc32)cc1	80.8	74.1	-15.8	98.7
Cn1nc(C(=O)NCCNc2ncc(C(F)(F)F)cc2Cl)c2ccccc2c1=O	77.5	95.7	-27.8	nt
O=C1Cc2cc(S(=O)(=O)N3CCCC3c3ccc4c(c3)OCCO4)ccc2N1 (configuration not stated)	98.4	84.2	-1.5	nt
CCOC(=O)C1CCN(C(c2cc3ccc(OC)cc3n3nnnc23)c2nnnn2C2CCCC2)CC1 (configuration not stated)	68.8	107.3	11.5	98.2
O=c1sc2c(s1)SCSCS2	103.3	90.7	-19.0	nt
CC12CCC(=O)N1C(C(=O)OCC(=O)Nc1cccc(Br)c1)CS2 (configuration not stated)	89.9	89.8	2.6	nt
CC1CCCCN1C(=O)COc1ccc(NC(=O)c2ccco2)cc1 (configuration not stated)	102.8	81.7	-17.4	nt
Cc1cc(=O)c2n(Cc3ccccc3Cl)nc[n+]2[nH]1	92.6	96.4	2.3	nt
O=C1N(Cc2ccccc2)c2ccccc2C1(O)c1nnc(-c2ccccc2)o1 (configuration not stated)	98.9	84.8	-7.7	nt
CCc1ccc(OC(C)C(=O)NCc2csc(-c3ccccc3)n2)cc1 (configuration not stated)	nt	nt	-17.1	100.8

Looked up by compound from the entries so far:
SMILES	Sa growth 42C	Sa growth 42C second temp	HCMV UL50-53 inh	GIV-Gai inh
COC(=O)C1CCC(=O)C(C(=O)OC)C1 (configuration not stated)	103.4	102.1	12.7	100.1
Cc1cccc(N2C(C)C(=O)SC23CCCCC3)c1 (configuration not stated)	114.3	94.2	2.0	nt
O=C1N(Cc2ccccc2)c2ccccc2C1(O)c1nnc(-c2ccccc2)o1 (configuration not stated)	98.9	84.8	-7.7	nt
CCOC(=O)C1CCN(C/C=C/c2ccccc2)CC1	101.8	98.9	-16.4	105.2
COc1cc2c(cc1OC)-c1nnc(C)n1C1(CCCC1)C2	88.6	83.8	-8.2	98.5
CN(C)c1cccc(C(=O)NCCc2c[nH]c3ccccc23)c1	99.3	94.3	-16.0	nt

Carrying on.
SMILES	Sa growth 42C	Sa growth 42C second temp	HCMV UL50-53 inh	GIV-Gai inh
Cc1ccc(S(=O)(=O)c2ccc(C(=O)N3CCN(Cc4ccc5c(c4)OCO5)CC3)cn2)cc1C	nt	nt	-17.2	102.1
CC(=O)N1c2ccccc2C(C)CC12CCCCC2 (configuration not stated)	76.0	90.8	-2.6	nt
Cc1nc2sc3c(NCc4ccccc4)ncnc3c2c2c1COC(C)(C)C2	102.2	83.4	-8.3	102.0
COc1ccc(-c2noc(-c3cccc(OCC(=O)N(C)C)c3)n2)cc1	nt	nt	-16.5	107.6
CCOc1ccc(-n2c(=O)c3c4c(sc3n(CC(=O)NC(C)CC)c2=O)CCC4)cc1 (configuration not stated)	92.6	105.3	0.8	104.0
O=C1NC2(CCCC2)C(=O)N1CCC(=O)N(CC1CCCO1)c1nc2ccccc2s1 (configuration not stated)	106.0	88.0	-11.8	nt
COC(=O)c1scc(C)c1NC(=O)CC1NCCNC1=O (configuration not stated)	87.7	88.0	-22.5	105.6
COc1ccc(C2CC(c3ccc(C)cc3)=NN2C(=O)CCC(=O)O)cc1OC (configuration not stated)	nt	nt	-49.5	101.4
Cn1c(C(=O)N2CCC3(CC2)OCCO3)cc2c(=O)[nH]c3ccccc3c21	107.9	91.6	11.1	102.6
Cc1cc(=O)[nH]c2ccc(S(N)(=O)=O)cc12	114.8	100.3	4.1	102.7
O=C(Nc1ccc(F)cc1)C1CC(=O)N2CCN=C2S1 (configuration not stated)	93.9	86.4	-12.7	nt
CCN(C(=O)CC(C)(C)C)c1ccccc1	90.0	95.7	-1.2	nt
Cc1ccc(S(=O)(=O)c2nc(NCCCN3CCCC3=O)sc2Cl)cc1	111.2	92.9	-30.6	nt
O=C(Nc1ccc(-c2noc(C3CCC3)n2)cc1)Nc1cccnc1	nt	nt	6.1	102.8
COc1ccc2c(c1)cc(C(=O)Nc1ccc(N3CCOCC3)cc1)n2C	nt	nt	-23.2	105.0
Clc1ccc(-c2noc(-c3cccnc3NCc3cccnc3)n2)cc1	nt	nt	19.7	99.8
Cc1cccc(N2CCN(C(=O)C3=NNC(=O)CC3)CC2)c1C	81.6	86.3	-38.9	nt
O=C(CN1C(=O)c2ccccc2C1=O)NN1C(=O)CSC1=S	96.6	78.7	-31.5	nt
N#Cc1ccc(C(=O)N/N=C/c2cn(CC(=O)O)c3ccccc23)c(F)c1	101.6	97.0	-14.6	106.6
CN(C)CC(=O)c1ccc(-c2ccccc2)cc1	59.4	14.9	-21.5	103.8
Cc1n[nH]c(=O)nc1N1CCc2ccccc2C1	94.8	96.4	4.8	105.4
O=C(N/N=C/c1c(-c2ccccc2)nc2sccn12)c1cc(=O)[nH]c(=O)[nH]1	104.4	95.6	-43.8	nt
CCCc1nnc(SCC(=O)N2CCCc3ccccc32)n1CC	77.7	84.2	9.6	104.0
CC(C)(C)NC(=O)COc1ccc(CNc2ccc3c(c2)OCCO3)cc1	108.8	76.0	-11.8	101.8
Cc1ccc(N2C(=O)CCSC23C(=O)N(Cc2ccccc2)c2ccccc23)cc1F (configuration not stated)	90.4	86.3	nt	106.7
Cc1ccc2nc(Nc3nc(-c4ccc(F)cc4)cc(=O)[nH]3)nc(C)c2c1	nt	nt	-16.1	96.4
N#Cc1c2c(c(-n3cnc4ccccc43)n3c1nc1ccccc13)CCCC2	92.2	90.9	-10.0	98.0
Cc1ccc(S(=O)(=O)NCc2ccc(C(=O)NCCN3CCN(c4ccccc4)CC3)cc2)cc1	109.6	95.5	nt	105.1
O=c1[nH]c(-c2cc(Cl)ccc2O)nc2c1Cc1cc(F)ccc1O2	nt	nt	3.6	100.2
COc1cc(OC)cc(C(=O)NC2CCCCCCC2)c1	105.4	81.6	-17.5	101.6

Ordered by value in GIV-Gai inh (highest first): 3 from the list above.
Structure	Sa growth 42C second temp	GIV-Gai inh
Cc1nnc2n(c1=O)N=C(c1ccccc1)CS2	94.9	103.1
COCCCNCC1C(Oc2ccc(Cl)cc2)C(=O)N1c1ccccc1C (configuration not stated)	nt	99.7
O=C(Nc1ccccc1Cl)c1cc(-c2cccs2)nc2ccccc12	78.4	97.0

Look-ups from the results shown:
In Sa growth 42C, COC(=O)c1scc(C)c1NC(=O)CC1NCCNC1=O (configuration not stated) has the entry 87.7
In HCMV UL50-53 inh, CN(C)C(=O)NC1c2ccccc2-c2ccccc21 has the entry -5.5

Other records.
SMILES	Sa growth 42C	Sa growth 42C second temp	HCMV UL50-53 inh	GIV-Gai inh
O=C(CSc1nccc(-c2cccs2)n1)c1cc2ccccc2o1	88.2	84.3	-11.6	102.4
CC1CCCCN1S(=O)(=O)c1ccc2c(c1)oc(=O)n2CC(=O)O (configuration not stated)	95.1	87.0	-11.2	107.8
COc1ccc(C2CC(=O)C3=C(C2)OC(N)=C(C#N)C3c2ccccc2)cc1OC (configuration not stated)	nt	nt	-6.1	102.8
Cc1cc(-n2cc(Br)c(=O)[nH]c2=O)nc(-c2ccccc2)n1	101.9	92.5	-10.1	105.4
COCCNc1c(-c2ccc(N)cc2)nc2ccc(C)cn12	96.3	81.8	-26.7	98.0
O=C(NCCOc1ccccc1Cc1ccccc1)c1ccc(Br)cc1	102.2	93.1	-26.2	nt
Cc1cc(NC(=O)CCS(=O)(=O)c2cc(Br)cc3c2N(C(=O)C2CC2)CC3)ccc1Br	97.5	88.5	-0.9	99.7
O=C(NCc1ccccc1)N1CCN(c2ccccc2)CC1	95.6	77.7	-33.7	109.7
O=C(O)CCNc1nc(C(F)(F)F)nc2ccccc12	87.8	105.2	-2.2	97.1
O=c1c(S(=O)(=O)c2ccccc2)cn(Cc2ccc(F)cc2)c2ccc(F)cc12	71.5	84.8	nt	99.0
Cc1ccccc1CSc1cn(CCNC(=O)c2cccs2)c2ccccc12	79.2	89.3	-2.9	102.2
CCOc1ccc(-c2noc(-c3cc(C4CC4)[nH]n3)n2)cc1	nt	nt	-5.9	107.3
CCCc1cc(C(=O)Nc2sc3c(c2C#N)CCCC3)no1	88.3	85.2	-2.3	97.6
O=C(Nc1ccc2c(c1)OCCO2)c1cc(-c2cccnc2)on1	nt	nt	-18.0	102.7
CCOCCOC(=O)COc1ccc2c(=O)c(Oc3ccc(C(C)(C)C)cc3)coc2c1	nt	nt	-13.2	106.5
N#Cc1ccc(COC(=O)c2ccc3noc(-c4ccccc4)c3c2)cc1	93.0	89.6	-27.1	nt
CCc1ccc(C2C(c3ccccc3)=C(O)C(=O)N2CCc2ccccc2)cc1 (configuration not stated)	nt	nt	-23.6	99.4
CCN(CC)S(=O)(=O)c1ccc(N/N=C/C=C2/N(C)c3ccccc3C2(C)C)nc1	69.2	91.3	-9.5	nt
CCOC(=O)N1CCN(C(=O)CN(c2ccccc2F)S(=O)(=O)c2ccc(C)cc2)CC1	112.0	89.3	-31.9	106.7
NC(=S)CN1C(=O)c2ccccc2S1(=O)=O	89.4	82.2	-29.6	nt
CC(C)C(=O)c1cc2c(cc1NC(=O)c1ccccc1F)OCCO2	97.0	90.7	nt	103.2
